# gsp ag = gsp mutant agonism. AID 624287. Potency, µM (top dose mostly 76.9 µM), for the others: at the highest dose activation (cAMP increase), actives largely listed as activators. gsp mutant cells, cAMP HTRF, 30 min; control for the full effect not named in the record. 0.13% of 340,000 active; active = well fitted activation curve with a large enough effect; inconclusive = small, poorly fitted or top-dose-only effect, or another doubt; inactive = no such curve, though single readings can be large or run the other way; cell line not stated here;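 note: phosphodiesterase inhibitor Ro 20-1724 added with compounds to block cAMP breakdown; potency is the fitted concentration of half-maximal effect; nearly all actives have a fitted effect of over 60% in size; about a fifth of the inactives were tested at one dose only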
#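 Cells in DMEM/10% FBS with G418 were pretreated with compounds in DMSO plus […] (300 uM stock) for 30 min at 37C. cAMP was measured by HTRF (cAMP-d2 plus anti-cAMP antibody-K) after 30 min at room temperature.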
# CtBP-E1A inh = blocks the CtBP interaction with E1A. AlphaScreen GST-E1A/His-CtBP binding, 1536-well; active compounds read low; control for the full effect not named in the record. activity change, % (no concentration beside the values). 0.49% of 340,000 active. AID 651724; in the data active means activity change below about -65%; inconclusive means about -30% to -65%; inactive means above about -30%; note: % is set by controls: 0 for no effect and ±100 for the full control effect
#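 AlphaScreen with 125 nM GST-E1A and 125 nM His-CtBP (5X stocks) in Tris pH 8.0, 300 mM NaCl, BSA, Tween 20, TCEP. Compounds preincubated 2 h at 37 deg C, then glutathione donor/nickel acceptor beads added for 1 h at 37 deg C in dark.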
# D2 agonist = agonists of human D2 dopamine receptor (beta-arrestin); 0.084% of 360,000 active; DiscoveRx PathHunter D2 beta-arrestin, luminescence, 90 min; 100% = 57 uM dopamine signal; P14416; AID 624465; activation, % (test concentration not listed); in the data active = activation above about 40%; inconclusive = about 15% to 40%; inactive = below about 15%; note: compound concentration not given in the record; the text of the record calls up to 30% inactive
#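 Agonist mode: compounds alone added to overnight-plated D2 PathHunter cells for 90 min at 37 C, with 57 uM final dopamine (EC100) defining full response. Beta-arrestin recruitment detected by chemiluminescent reagent, read after 1 h at ambient temperature.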
# D2 potentiator = positive allosteric modulators of human D2 dopamine receptor. DiscoveRx D2 beta-arrestin cells, luminescence, 90 min; 100% = 57 uM dopamine signal. potentiation, % (concentration not given with the values). 0.23% of 360,000 active. AID 624464; active = potentiation of 50% or more; inconclusive = 30% to 50%; inactive = 30% or less;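 note: compound concentration not given in the record; tested on top of an EC20 dose of dopamine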
#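 D2 cells co-treated with compound plus 50 nM dopamine (EC20) for 90 min at 37 deg C to detect potentiation. Beta-arrestin recruitment was read as enzyme-fragment luminescence after 1 h at ambient temperature. Full response was set by 57 uM dopamine.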
# gsp antagonist = antagonists of gsp mutant (McCune-Albright syndrome); gsp-mutant cells, cAMP HTRF, 30 min; control for the full effect not named in the record; Potency, µM (doses to about 76.9 µM), for inactives: top-dose activity change, negative = inhibition, hits mostly inhibitors; 0.4% of 340,000 active; active = falling curve of any shape with a large fitted effect; inconclusive = falling curve, mostly with a smaller effect; inactive = flat or rising curve; cell line not stated here;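 note: intracellular cAMP measured with PDE inhibitor Ro 20-1724 present during compound exposure; potency is the fitted concentration of half-maximal effect; % is set by controls: 0 for no effect and ±100 for the full control effect; nearly all actives have a fitted effect of over 65% in size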
#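 Cells in G418 medium, seeded 16-24 h, 37C; buffer exchange to DPBS + 1 mM CaCl2, 0.5 mM MgCl2, 0.05% BSA; cpds in DMSO + […] (300 uM stock), 30 min 37C; HTRF cAMP detection.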
# Six1-Eya2 blk = Six1/Eya2 interaction inhibition. Q15475+O00167. AlphaScreen GST-Six1/His-Eya2 binding, biochemical; active compounds read low; control for the full effect not named in the record. activity change, % (concentration not given with the values). 0.56% of 360,000 active; in the data active = activity change below about -65%; inconclusive = about -30% to -65%; inactive = above about -30%; note: % is set by controls: 0 for no effect and ±100 for the full control effect
# Target sequence (O00167 whole entry, looked up): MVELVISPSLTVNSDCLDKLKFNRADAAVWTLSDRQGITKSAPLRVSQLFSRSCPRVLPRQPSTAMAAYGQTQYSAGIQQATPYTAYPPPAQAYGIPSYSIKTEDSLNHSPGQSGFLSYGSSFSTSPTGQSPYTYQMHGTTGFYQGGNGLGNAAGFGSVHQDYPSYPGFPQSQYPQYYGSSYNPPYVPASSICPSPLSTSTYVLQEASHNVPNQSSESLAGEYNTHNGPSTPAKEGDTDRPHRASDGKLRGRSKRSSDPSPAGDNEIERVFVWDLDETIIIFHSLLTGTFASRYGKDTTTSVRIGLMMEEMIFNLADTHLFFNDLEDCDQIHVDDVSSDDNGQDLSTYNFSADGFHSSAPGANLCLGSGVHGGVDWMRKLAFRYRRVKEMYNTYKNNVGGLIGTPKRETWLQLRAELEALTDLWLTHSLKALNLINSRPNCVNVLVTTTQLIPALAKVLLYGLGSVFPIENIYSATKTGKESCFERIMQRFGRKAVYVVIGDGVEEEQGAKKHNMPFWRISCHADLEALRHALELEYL
# Target sequence (Q15475 whole entry, looked up): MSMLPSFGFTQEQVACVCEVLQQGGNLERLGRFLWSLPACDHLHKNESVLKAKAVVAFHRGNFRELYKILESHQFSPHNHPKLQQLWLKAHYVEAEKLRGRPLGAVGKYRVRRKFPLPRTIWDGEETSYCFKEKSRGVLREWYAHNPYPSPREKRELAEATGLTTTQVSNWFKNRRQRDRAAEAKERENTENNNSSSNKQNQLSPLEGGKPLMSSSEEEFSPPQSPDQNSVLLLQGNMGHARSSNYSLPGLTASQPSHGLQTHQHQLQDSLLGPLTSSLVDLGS
#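 AlphaScreen luminescence read after one hour at 37 °C in darkness. Pin-transferred compounds met GST-Six1 and His-Eya2 protein (5X stock 250 nM/500 nM) plus glutathione donor and Ni-chelate acceptor beads (5X, 50 ug/mL).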
# * hit, by the source's call; ? = inconclusive; . = no result given; [ ] = dose if it differs, or a comment. Rows were taken by chance; 1.4% or so of the library scored in one or more.
SMILES,gsp ag,CtBP-E1A inh,D2 agonist,D2 potentiator,gsp antagonist,Six1-Eya2 blk
COC(=O)c1cc(S(=O)(=O)NCC2CCN(Cc3cccc(Cl)c3)CC2)c[nH]1,0%,.,3.6,-12,11%,2
Cc1nnc(SCC(=O)NCc2ccccc2)[nH]c1=O,-32%[inhibitor],3,-2.2,-2,1%,-2
Cc1nc2cc(OCc3cc(C(=O)NC(C)c4cnn(C)c4)no3)ccc2s1 (centres undefined),-1%[15.4 µM],4,1.3,-16,-10%,2
Cc1cc(=O)[nH]c(SCc2nnnn2-c2ccc(Cl)cc2)n1,-11%,0,0.5,-2,0%,0
O=C(Cn1c(-c2cscn2)nc2ccccc21)Nc1ccccc1F,-23%,2,-1.8,-4,-5%,-2
Cc1ccc(C2(C)NC(=O)N(CC(=O)NCc3ccccc3Cl)C2=O)cc1 (centres undefined),-42%[inhibitor],4,1.3,-6,4%,-3
O=C(NCc1ccc(F)cc1)c1cc(C2CCCN(S(=O)(=O)c3ccccc3)C2)on1 (centres undefined),.,-1,-5.1,-3,.,1
CC[C@H](C)[C@H](NC(N)=O)C(=O)Nc1ccc2c(c1)OCO2,-18%,5,-3.7,-2,-1%,-4
COC(=O)c1ccn(Cc2ccccc2Cl)n1,-5%[15.4 µM],7,-1.0,0,3%,-3
COc1ccc(NC(=O)C2C(=O)NC3(C)CC2c2ccccc2O3)cc1 (centres undefined),-34%,2,2.7,11,1%,13
Cc1cccc(OCCOCCN2CCOCC2)c1C,-1%,-5,1.0,-15,3%,2
COC(=O)c1ccc(NC(=O)CSc2nc3ccccc3c(=O)[nH]2)cc1,-25%,1,0.5,-8,6%,2
CC1OC1c1ccc(-c2ccc(C3OC3C)cc2)cc1 (centres undefined),-27%,-86*,4.8,-7,5%,-15
Cc1ccc(NC(=O)CSCc2cc(=O)n3cc(C)sc3n2)cc1,?,5,-4.6,-3,11%,1
CCn1c(=N)n(CC(=O)c2cccc([N+](=O)[O-])c2)c2ccccc21,1%,-2,0.3,-7,-12%,-2
O=C(N=Nc1c(O)[nH]c2ccc(F)cc12)C1COc2ccccc2O1 (centres undefined),-24%,2,3.1,-4,-4%,0
COc1cc(NC(=O)COC(=O)CNC(=O)c2ccc(C)s2)cc(OC)c1,5%[15.4 µM],.,2.6,-6,11%,-4
Cc1nn2c(NCC(C)C)c3c(nc2c1-c1ccccc1)CCC3,-32%[inhibitor],6,0.6,5,-25%,10
O=C(NCC1(N2CCOCC2)CCCCC1)c1cccc(S(=O)(=O)Nc2ccc(F)cc2)c1,39%,-7,5.7,-6,-18%,3
O=C(O)CSCc1ccc(Cl)cc1,20%,-2,-0.9,-4,-2%,15
CCOC(=O)c1cn(-c2ccc([N+](=O)[O-])cc2)c2cc(Cl)c([N+](=O)[O-])cc2c1=O,-17%,-4,-6.2,3,5%,11
COCCCNc1ccn2nc(-c3cccc(Cl)c3)cc2n1,.,3,4.4,-11,.,-4
O=Cc1c[nH]c2cccc(OCc3ccccc3)c12,-29%[15.4 µM],-3,1.2,-10,5%,-13
O=C(c1cn(-c2ccccc2)nc1-c1cccc(Br)c1)N1CCOCC1,-5%[15.4 µM],0,1.3,-5,-5%,16
Cn1c(=N)n(CC(O)c2cccs2)c2ccccc21 (centres undefined),-8%[15.4 µM],0,-2.5,-8,19%,-1
COc1ccc(NC(=O)COC(=O)C2COc3ccccc3O2)cc1 (centres undefined),-56%[inhibitor],2,-1.6,-11,.,4
Cc1cc(C)c2nc(N3C(=O)C(O)=C(C(=O)c4ccco4)C3c3cccc(O)c3)sc2c1 (centres undefined),1%,-11,7.5,-4,-14%,-8
CSc1cccc(NC(=S)N(Cc2ccccc2)Cc2cccnc2)c1,2%[15.4 µM],0,-1.5,-7,-17%,-2
COc1ccc(S(=O)(=O)NCC(c2ccc3c(c2)OCO3)N2CCN(c3ccccc3)CC2)cc1 (centres undefined),-13%[15.4 µM],-5,?,28,-2%,-25
CCOC(=O)C1C(=O)CC(C)(O)C(C(=O)OCC)C1c1ccc2c(c1)OCO2 (centres undefined),2%,1,-1.3,4,-9%,4
COc1cc(C(=O)Nc2ccccc2C(=O)NCc2cccnc2)cc(OC)c1OC,-11%[15.4 µM],-3,5.4,-25,0%,-11
COCCCNC(=O)c1ccccc1Sc1ccc(NC(C)=O)nc1,-27%,2,-3.9,-2,-1%,-3
C/C(=N\Nc1ccc(S(N)(=O)=O)cc1[N+](=O)[O-])c1cccnc1,1%[15.4 µM],7,-0.5,-2,0%,-7
CCOC(=O)c1c(C)c(C)n2c1NC(=O)C2,.,-2,-1.0,-2,.,-15
O=c1c([N+](=O)[O-])c(O)c2ccccc2n1Cc1ccccc1,-3%,.,5.3,-12,-3%,-9
CC(=O)c1ccc(OCc2cc(C(=O)N(C)Cc3cc(C)no3)no2)cc1,-28%,0,1.0,-3,12%,1
COc1ccc(C(=O)CSc2ccc(-c3ccco3)nn2)cc1,-1%,-1,1.8,12,5%,-9
CC(C)[C@@H](N)C(=O)N/N=C/c1ccc2nccnc2c1,8%[15.4 µM],-5,-4.9,-1,10%,0
COc1cccc2cc(-c3cn4ccc(C)cc4n3)c(=O)oc12,-55%[inhibitor],2,0.1,-7,4%,2
CC(=O)Nc1cccc(C(=O)/C=C/c2ccc(N(C)C)cc2)c1,?,1,6.1,?,-3%,-3
COCCN(CCOC)C(=O)C1CCCN(S(=O)(=O)c2ccc(NC(=O)OC)cc2)C1 (centres undefined),-14%,.,-4.5,-14,4%,6
O=C(NNC(=O)c1cc2ccccc2o1)c1ccc(Cl)cc1,-9%[15.4 µM],4,0.9,1,13%,7
O=C(Cc1ccc(Cl)cc1)Nc1ccc(Br)cn1,28%,6,6.3,-3,0%,9
CCn1c(SCc2ccc(Cl)c(Cl)c2)nnc1C(C)NC(=O)c1ccc(OC)cc1 (centres undefined),13%,0,-2.8,-9,12%,7
COc1cc(Cl)c(C)cc1NC(C)C(=O)Nc1cc(C(F)(F)F)ccc1N1CCOCC1 (centres undefined),-27%,-19,0.5,-15,1%,-15
C=CCS/C(N)=N\N=C\c1c(O)ccc2ccccc12,4%,-15,-4.7,-11,-12%,4
CCCCn1c(SCC(=O)Nc2nccs2)nc2ccccc2c1=O,-3%,4,-3.7,0,7%,3
CNC(=O)c1cccc(N2CCCC2=O)c1,20%,2,0.7,-6,1%,5
Cn1cc(Br)c(C(=O)Nc2ncc(Br)s2)n1,9%,.,-4.8,-3,2%,-3
NS(=O)(=O)c1ccc(CCNC(=O)C(=O)NCC2OCCN2S(=O)(=O)c2cccs2)cc1 (centres undefined),0%,6,0.9,8,7%,-1
CN(CC(=O)NC1CCCCCCC1)S(=O)(=O)c1cnc[nH]1,5%,2,-0.9,-6,0%,6
COc1ccc(Cl)cc1NC(=O)Nc1ccccc1C(N)=O,-130%[inhibitor],.,-2.8,-10,-1%,-2
Cc1cccc(OCCCn2c(=O)oc3ccc(C)cc32)c1,-4%[15.4 µM],3,1.8,10,-17%,29
Cc1c(Cc2ccc3c(c2)OCO3)sc(NC(=O)c2cccc3ccccc23)c1C(N)=O,-18%,-5,-4.4,-2,0%,3
Cc1cccc(N2CCN(C(=O)c3ccc(CNc4c(N5CCC(C)CC5)c(=O)c4=O)cc3)CC2)c1C,-2%[15.4 µM],-4,-0.5,-4,-9%,0
Cc1c(C(C)C)c(=O)n(-c2ccc(S(=O)(=O)NC3CC3)cc2)n1C,-2%[15.4 µM],3,-4.0,-14,7%,6
CCCOc1ccc(C(CC(=O)O)NC(=O)c2cccs2)cc1 (centres undefined),17%,-1,-1.9,-12,4%,3
CCOC(=O)C1C(c2ccc(O)c(OCC)c2)NC(=S)NC1(O)C(F)(F)F (centres undefined),7%,-2,-1.8,-5,5%,8
COc1ccc(C2c3c(ccc4ccccc34)Oc3ncn4nc(-c5ccco5)nc4c32)cc1OC (centres undefined),6%,-1,2.7,-1,2%,-9
CC(SC1=NCCN1S(=O)(=O)c1ccccc1)c1ccccc1 (centres undefined),-2%,6,-1.0,-2,-21%,-1
# The list continues:
SMILES,gsp ag,CtBP-E1A inh,D2 agonist,D2 potentiator,gsp antagonist,Six1-Eya2 blk
O=C(CS(=O)(=O)Cc1ccccc1)NCc1ccccc1Cl,9%,-3,-3.2,-11,2%,9
COCCNC(=O)COc1ccc(Oc2ccccc2)cc1,9%,-3,-0.6,-21,-2%,5
Cc1ccc(SCC(=O)N2CCN(S(=O)(=O)c3cccs3)CC2)cc1,-1%[15.4 µM],5,3.0,-14,-7%,-1
Cc1c(NC(=O)OCc2ccccc2)c(=O)n(-c2ccccc2)n1C,?,0,-4.9,3,14%,-1
CC(Cl)C(=O)Nc1ncc(C(F)(F)F)cc1Cl (centres undefined),0%,5,0.6,-3,7%,8
COc1cccc(CNC(=O)Cn2nc(C)c3c(C)n(-c4ccc(C)cc4)nc3c2=O)c1OC,-2%,4,-3.7,-8,8%,-2
Cn1c(=O)c2[nH]c(N3CCCCC3)nc2n(C)c1=O,0%,5,-0.5,7,-7%,6
CCc1nc(C)cn1S(=O)(=O)c1cc([N+](=O)[O-])ccc1Cl,4%[15.4 µM],0,1.1,8,3%,10
CC(=O)N1c2ccc(S(=O)(=O)N3CCC(C(=O)N4CCN(c5ccc(Cl)cc5)CC4)CC3)cc2CC1C (centres undefined),?,-19,6.1,-19,?,-10
CN(CCOC(=O)c1cccc(F)c1)Cc1ccccc1,-42%[inhibitor],.,-2.1,-13,?,1
Cc1cc(/C=C(\C#N)C(=O)Nc2ccc(F)cc2)c(C)n1-c1ccc(N2CCOCC2)c([N+](=O)[O-])c1,-4%,-4,-3.0,-21,-11%,-5
O=C(O)c1ccc(-n2cc(C(=O)c3ccccc3O)cn2)cc1,-17%,-3,-4.6,1,-21%,-13

# Reformatted bar-delimited: part of the list above.
Compound | gsp ag | CtBP-E1A inh | D2 agonist | D2 potentiator | gsp antagonist | Six1-Eya2 blk
CC(Cl)C(=O)Nc1ncc(C(F)(F)F)cc1Cl (centres undefined) | 0% | 5 | 0.6 | -3 | 7% | 8
COc1cccc(CNC(=O)Cn2nc(C)c3c(C)n(-c4ccc(C)cc4)nc3c2=O)c1OC | -2% | 4 | -3.7 | -8 | 8% | -2

# Rewritten with each value named: 2 of the compounds above
CCc1nc(C)cn1S(=O)(=O)c1cc([N+](=O)[O-])ccc1Cl
  gsp ag: 4%[15.4 µM]; CtBP-E1A inh: 0; D2 agonist: 1.1; D2 potentiator: 8; gsp antagonist: 3%; Six1-Eya2 blk: 10
Cn1c(=O)c2[nH]c(N3CCCCC3)nc2n(C)c1=O
  gsp ag: 0%; CtBP-E1A inh: 5; D2 agonist: -0.5; D2 potentiator: 7; gsp antagonist: -7%; Six1-Eya2 blk: 6

# CtBP-E1A inh, entries above that show a hit
molecule | gsp ag | CtBP-E1A inh | D2 agonist | D2 potentiator | Six1-Eya2 blk
CC1OC1c1ccc(-c2ccc(C3OC3C)cc2)cc1 (centres undefined) | -27% | -86* | 4.8 | -7 | -15
